GIV Gai3 FP = inhibitors of GIV GBA-motif binding to rat Galpha-i3; P08753; Galpha-i3/FITC-GIV peptide fluorescence polarization, 90 min; stronger effect = lower value; scaled: aluminum fluoride 0%, vehicle 100%; percent of control (FP), % (no concentration beside the values); 210,000 compounds, 0.42% hits;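 active = replicate mean at 85% of control or lower, very high polarization wells dropped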;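 also: wells of about 15 µL received 100 nL stock; the first replicate is given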
Target sequence (P08753 whole entry, looked up): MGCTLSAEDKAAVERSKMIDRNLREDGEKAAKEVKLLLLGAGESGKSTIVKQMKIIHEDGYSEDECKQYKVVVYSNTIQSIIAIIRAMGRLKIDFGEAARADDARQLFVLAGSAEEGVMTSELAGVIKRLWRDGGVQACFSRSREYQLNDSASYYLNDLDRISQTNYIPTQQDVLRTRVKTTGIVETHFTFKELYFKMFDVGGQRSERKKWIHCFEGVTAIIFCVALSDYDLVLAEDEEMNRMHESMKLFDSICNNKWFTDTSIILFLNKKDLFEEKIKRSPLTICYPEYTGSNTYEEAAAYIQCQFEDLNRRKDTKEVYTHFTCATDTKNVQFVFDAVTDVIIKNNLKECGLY
HCMV NEC inh = disrupts HCMV UL50-UL53 complex binding; 190,000 compounds, 0.15% hits; inhibition, % (concentration not given with the values); HTRF UL50-UL53 interaction, normalized percent inhibition; AID 1918969;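 active = both replicates at 50% or more, plus weaker picks with an unusually low signal ratio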;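 also: stock transfer was 100 nL into about 20 µL; 0% = negative control wells and 100% = wells with untagged competitor protein; inactives centre near -12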
Sa growth inh = S. aureus growth inhibition; S. aureus RN4220 growth, OD600, 20 h, 42 °C; stronger effect = lower value; relative growth, % (concentration not given with the values); 170,000 compounds, 0.53% hits;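 active = growth at 42 °C up to 50% and 20 or more points under that at 30 °C, or under 10% at both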;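 also: 300 nL library stock went into each well; scaled to the means of positive and negative controls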
Sa growth inh second temp = recorded beside Sa growth inh, whose call it bears; relative growth, %; measured here: growth at 30 °C;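 optical density after 20 h as mean of two plates; 100% = untreated growth and lower means inhibition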
* = called active by the depositor; nt = no result given; & = joins results of further samples. Not a hit list; about 0.83% have a hit in one of these screens.

SMILES	GIV Gai3 FP	HCMV NEC inh	Sa growth inh	Sa growth inh second temp
COc1ccc(N2CCN(C(=O)CSc3nnc4c(C)cc5cc6c(cc5n34)OCCO6)CC2)cc1	101	-14	103	76
CN(CC(=O)Nc1ccc(F)c(F)c1F)C(=O)C1CCCCC1	nt	-16	93	91
CC1(C(=O)C[n+]2cccc(C(N)=O)c2)CCC(=O)O1 (stereo unspecified)	98	-32	123	84
COc1ccc(Cl)cc1S(=O)(=O)NCCn1c(-c2ccncc2)nc2cccnc21	111	-8	nt	nt
CCCCc1c(COC)[nH]c(=O)[nH]c1=O	101	1	109	95
N#CCCn1cc(/C=c2\sc3nc4ccccc4n3c2=O)c(-c2ccc(F)cc2)n1	nt	-12	74	81
Cc1ccc(NC(=O)CCc2nnc3ccc(NCc4ccccc4Cl)nn23)cc1	99	-34	nt	nt
CCOC(=O)COc1ccc(C2NC(C(=O)O)CS2)cc1OCC (stereo unspecified)	104	-19	100	92
CCOC(=O)COc1c(C#N)sc2c1c(=O)n(-c1ccccc1)c(=S)n2-c1ccccc1	108	2	114	92
O=c1cc(-c2ccccc2)[nH]c(=O)[nH]1	103	-35	94	85
O=C(c1ccc(CS(=O)c2ccccc2Cl)o1)N1CCN(c2ccccc2F)CC1 (stereo unspecified)	103	nt	110	80
COC(=O)C(CC(=O)c1cccs1)c1ccccc1 (stereo unspecified)	106	-8	124	67
OCc1nc2ccccc2n1CN1CCN(Cc2cccs2)CC1	nt	-23	110	95
O=S(=O)(Nc1nc2ccccc2nc1Nc1ccccc1Br)c1ccccc1	109	5	99	90
COc1cc(-c2noc(-c3ccc(NCc4ccccc4)c([N+](=O)[O-])c3)n2)cc(OC)c1OC	97	-27	87	84
COc1ccccc1CNC(=O)c1ccc2c(c1)nnn2C1CCCC1	101	nt	99	93
CCCNc1c2c(nc3ccccc13)CC(C)(C)CC2=O	105	-15	110	94
O=C(CC1SC(=Nc2ccccc2)N(c2ccccc2)C1=O)Nc1ccc(F)cc1 (stereo unspecified)	109	3	nt	nt
COC(=O)c1c(NC(=O)c2ccc(S(=O)(=O)N3CCCCC3)cc2)sc2c1CCN(C)C2	102&110	nt	107	84
CC(C)OC(=O)c1ccc(CN2C(=O)NC(CCc3ccccc3)C2=O)o1 (stereo unspecified)	nt	-20	103	96
O=C(CSc1nc2ccccc2c(=O)n1CCO)N(C1CCCCC1)C1CCCCC1	nt	-18	82	93
Cc1[nH]c2cc(C(=O)O)ccc2c1CC(=O)O	106	-12	101	100
CCn1cnc(S(=O)(=O)N2CCCC(C(=O)N3CCc4ccccc43)C2)c1 (stereo unspecified)	103	-14	nt	nt
Cc1cccc(NS(=O)(=O)c2ccc3[nH]c(=O)[nH]c3c2)c1C	103	-11	102	84
CCC(C)c1ccccc1NC(=O)N(C)C (stereo unspecified)	104	19	107	101
COc1ccc2cc(CN(Cc3cccnc3)Cc3nnnn3Cc3ccc(F)cc3)c(=O)[nH]c2c1	103	-25	100	73
CN(C)CCNCc1ccc(-c2ccccc2F)o1	100	-9	nt	nt
CN(C)c1ccc(NC(=O)C23CC4CC(C2)CC(n2cnc(Cl)n2)(C4)C3)cc1	98	nt	89	83
COc1cccc(NC(=O)Cn2cc(C(=O)C3CCCCC3)c3ccccc32)c1	102	-15	90	86
O=C(O)CCCC(=O)N1CCc2cc(S(=O)(=O)N3CCc4ccccc43)ccc21	98	-4	118	83
O=C(O)c1cc(-c2ccc3c(c2)OCO3)on1	102	-13	113	83
CC1CCc2c(sc(N)c2C(=O)OC(C)C)C1 (stereo unspecified)	nt	-1	52	80
CCN(C(=O)CCn1c(=O)sc2ccccc21)c1ccccc1	104	nt	102	85
O=C(CCCCn1c(=O)c2ccccc2n(CC(=O)Nc2ccccc2)c1=O)NCc1ccccc1Cl	100	-3	97	91
CC(C)c1ccc(-c2nc(N3CCCCCC3)[nH]c(=O)c2C#N)cc1	96	25	99	92
CC(=O)n1ccc(C(=O)Nc2ccc(Cl)c(Cl)c2)n1	100	-6	111	63
CC(C)(C)c1ccc(C(=O)N2CCN(Cc3cc(=O)n4nc(-c5ccccc5F)sc4n3)CC2)cc1	100&101	nt	107	92
O=C(C1=NN(C2CCS(=O)(=O)C2)C(=O)CC1)N1CCc2ccccc2C1 (stereo unspecified)	nt	-32	97	93
Cc1cc(C(=O)NC2CCCC(C)C2C)n(-c2ccccc2)n1 (stereo unspecified)	100	nt	98	92
CCN1CCN(S(=O)(=O)c2ccc(C)cc2C)c2cccnc21	105	-20	nt	nt
c1ccc(CN2CCN(C3CCNCC3)CC2)cc1	99	11	97	83
N#CCCS(=O)(=O)c1ccc(-c2ccc(S(=O)(=O)CCC#N)cc2)cc1	99	-18	128	80
Cn1c(/C(C#N)=C/C2CC=CCC2)nc2ccccc21 (stereo unspecified)	100	-5	104	63
Cn1cnnc1SCc1c(Cl)cccc1Cl	nt	-4	113	93
Cc1ccccc1C(=O)Nc1cccc(OCc2cc(=O)n3cccc(C)c3n2)c1	105	nt	98	89
COc1ccc(NC(=O)CCc2c(C)nc3c(c2C)c(=O)n(C)c(=O)n3C)c(OC)c1	101	-34	110	87
CCc1c(C)sc(NC(=O)C2c3ccccc3Oc3ccccc32)c1C(=O)OC(C)C	105	-8	92	89
Cc1cccn2c(=O)c3cc(C#N)c(=O)n(-c4nnc(SCc5ccc(Cl)cc5)s4)c3nc12	159	-31	75	52
Cc1sc2nc(CN3CCCCC3)nc(Cl)c2c1C	nt	4	114	87
Cc1cccc(-c2nc(SCCCOc3ccccc3Cl)n3[nH]c(=O)cc3n2)c1	101	nt	88	95
Following part.
SMILES	GIV Gai3 FP	HCMV NEC inh	Sa growth inh	Sa growth inh second temp
CCCN(CCC)Cc1ccc(CNc2nc(-c3ccc(OC)cc3)no2)o1	104	-34	86	86
CC1CCCC(NC(=O)c2cccc3c2SCCC3=O)C1C (stereo unspecified)	103	8	80	81
Cc1cc(-c2nnc(-c3cccc(C(F)(F)F)c3)o2)no1	100	-11	106	88
Cc1nc2ccn(Cc3cccs3)c(=O)c2cc1C(=O)N1CCN(c2ccccc2F)CC1	94	nt	98	91
CN1C(=O)/C(=c2\sc3nc4ccccc4n3c2=O)c2ccccc21	102	-14	88	83
Cc1cc2n(n1)C(c1cccc(O)c1O)Nc1c(C)cccc1-2 (stereo unspecified)	102	nt	86	72
CCOC(=O)c1sc2cccc(Cl)c2c1N	104	-14	114	91
C=CC1CCC(O)C(N(C)C(=S)Nc2ccccc2)C1 (stereo unspecified)	102	nt	108	88
COc1cc(OC)c(Nc2c(-c3ccc(C)cc3)c(=O)c2=O)cc1Cl	105	-2	nt	nt
CC(C)COC(=O)c1ccc(N2CC(O)=C(c3nc4ccccc4c(=O)[nH]3)C2=N)cc1	101	-13	nt	nt
C1=CC(c2cccs2)CC1 (stereo unspecified)	nt	-3	118	84
CC(C)c1nnc(N2C(=O)c3oc4ccccc4c(=O)c3C2c2cccc(O)c2)s1 (stereo unspecified)	95	-69	95	90
CCc1ccc(C2=NN(CCC(=O)NCCc3ccc(OC)c(OC)c3)C(=O)CC2)cc1	106	nt	95	88
C(=N/n1cnnc1)/c1cccc2c1OCCCO2	nt	-40	78	98
CC(C)Nc1nc(-c2cccs2)cc(C(F)(F)F)c1C#N	106	-42	96	83
CC(C)(C)c1cc(-c2nc(-c3ccccc3)no2)n(Cc2ccccc2)n1	109	-6	99	85
CCOC(=O)C1CCN(Cc2cc(Cl)c3ccccc3c2O)CC1	nt	-17	91	74
Cc1cc(NC(=O)NNc2ccccc2)no1	107	-9	101	63
c1ccc(CNCCCN2CCOCC2)cc1	100	-22	88	89
C=CCn1c(SCc2cccc(OC)c2)nc2scc(-c3ccco3)c2c1=O	nt	-9	63	95
CN(C)S(=O)(=O)c1ccc(C(=O)NCCN2C(=O)CSC2=O)cc1	nt	-3	93	93
COc1ccccc1-c1nnc2ccc3ccccc3n12	105	nt	104	86
CC1=NN(C2(C#N)CCCCC2)C(c2ccccc2)C1 (stereo unspecified)	105	12	93	86
COc1ccc(CCNC(=O)c2cc(=O)c3c(C)cc(C)cc3o2)cc1OC	105	-24	104	87
CCOC(=O)c1c(C)oc2nc(C)nc(Nc3ccc(C)c(Cl)c3)c12	100	nt	90	92
C/C(CC(O)c1ccc2ccccc2n1)=N/O (stereo unspecified)	98	-3	107	100
Fc1ccc(-c2csc3ncnc(NCC4CCCO4)c23)cc1 (stereo unspecified)	105	-12	nt	nt
Cc1ccccc1Cn1cc(CCC(=O)NC(C)c2ccccc2)c2ccccc21 (stereo unspecified)	106	nt	128	103
Cn1c(=O)n(C)c2cc(S(=O)(=O)N3CCCC3)c(Cl)cc21	99	-16	nt	nt
c1ccc2c(c1)CCN2c1c2c(nc3ncnn13)CCC2	91	-10	nt	nt

Three compounds already listed, ordered by length of the SMILES, rising:
SMILES	GIV Gai3 FP	HCMV NEC inh	Sa growth inh	Sa growth inh second temp
CCCN(CCC)Cc1ccc(CNc2nc(-c3ccc(OC)cc3)no2)o1	104	-34	86	86
COc1ccc(NC(=O)CCc2c(C)nc3c(c2C)c(=O)n(C)c(=O)n3C)c(OC)c1	101	-34	110	87
COc1ccc2cc(CN(Cc3cccnc3)Cc3nnnn3Cc3ccc(F)cc3)c(=O)[nH]c2c1	103	-25	100	73

(more compounds)
SMILES	GIV Gai3 FP	HCMV NEC inh	Sa growth inh	Sa growth inh second temp
O=C(CCSc1ccccc1)N1CCOCC1	101	-6	106	105
CNCc1ccc(C)o1	104	-13	86	85
CCOCCOC(=O)C1=C(C)NC2=C(C(=O)CC(c3ccc(Cl)cc3)C2)C1c1cccc(OC)c1OC (stereo unspecified)	104	-21	nt	nt
CC(C)CCN1C(=O)C=CC1=O	nt	-26	87	70
CCC(=O)Nc1ccc(C(=O)CSc2nnc(CN3CCCC3)n2-c2ccccc2)cc1	nt	-36	96	81
Cn1c(N)c(S(=O)(=O)N2CCc3ccccc32)c(=O)n(C)c1=O	97	3	92	92
Cc1ccc(C2CC(c3cccs3)=NN2C(=O)CSc2ncnc3ccccc23)cc1 (stereo unspecified)	108	nt	116	97
CCOc1ccccc1-c1nc(Cn2c(=O)cc(C)c3c(C)nn(-c4ccccc4)c32)c(C)o1	101	nt	84	85
CCCCNC(=O)C1CCN(c2ccc(F)cc2)C1=O (stereo unspecified)	102	-19	nt	nt
O=C(NCc1ccco1)c1ccccc1NC(=O)C1CCCCC1	108	10	93	100
C=CCN1C(=O)CSC1=Nc1ccc(S(=O)(=O)Nc2nccc(C)n2)cc1	nt	-16	93	80
CCOc1ccc(S(=O)(=O)N2CCCC(C(=O)N3CCN(c4ccccc4)CC3)C2)cc1 (stereo unspecified)	105	-18	100	78
O=C(CN1C(=O)CSc2ccccc21)NCCC1=CCCCC1	104	2	102	83
Cc1cc(C)c2c(n1)SCC(=O)N2CC(=O)Nc1cccc(C)c1C	102	-34	90	89
Cc1cccc(C(=O)N(Cc2ccccc2)C(C)C)c1C	107	-3	122	105
Cc1cc(C)c2c(NC(=O)c3ccccc3Cl)c(C(=O)NCc3ccc(Cl)cc3)sc2n1	103	-37	100	90
CC(C)Cn1c(=O)c2ccccc2n2c(SCc3ccccc3)nnc12	98	-33	nt	nt
CCOC(=O)CC(=O)C1CCN(C(=O)OC(C)(C)C)CC1	103	-17	88	88
CCOC(=O)c1c(NC(C)=O)c2c3c(sc2n1CC(=O)Nc1cccc(Cl)c1)CCCC3	99	-11	nt	nt
COc1cc(NC(=O)C2CCN(c3nc4ccccc4nc3C(F)(F)F)CC2)cc(OC)c1	102	nt	93	90
O=C1CCCN1c1ccc(S(=O)(=O)Nc2cccc(CCc3ccccn3)c2)cc1	95	-18	86	78
CC1SC(c2cccnc2)N(c2ccc(F)cc2F)C1=O (stereo unspecified)	104	-6	100	88
CCCNC(=O)c1cnn2c(C)cc(C)nc12	nt	5	92	90
COc1ccc(Cl)cc1NC(=O)C1CCN(c2ncnc3c2nc2n3CCCCC2)CC1	106	nt	116	87
N#CC(c1nc2ccccc2nc1N1CCOCC1)S(=O)(=O)c1ccccc1 (stereo unspecified)	nt	-7	103	92
COCOC(=O)c1c(-c2ccccc2Cl)noc1C	nt	-12	118	96
O=C(CSc1nnc(Nc2ccccc2)s1)N1CCCC1	nt	-36	106	81
Cc1ccc(Cn2nnc3c(=O)[nH]c(C4CCCN(C(=O)c5ccco5)C4)nc32)cc1 (stereo unspecified)	95	-2	95	90
CSc1ccc2c(c1)c(=O)nc1n2CCCCC1	nt	-38	91	79
Cc1cccc(NC(=O)CN2C(=O)c3cccnc3Sc3ccccc32)c1	111	-28	nt	nt

Compound profiles (already shown). Order of screens: GIV Gai3 FP, HCMV NEC inh, Sa growth inh, Sa growth inh second temp
`CCCNC(=O)c1cnn2c(C)cc(C)nc12` across the screens: nt, 5, 92, 90
`COc1ccc(Cl)cc1NC(=O)C1CCN(c2ncnc3c2nc2n3CCCCC2)CC1` across the screens: 106, nt, 116, 87
`O=C1CCCN1c1ccc(S(=O)(=O)Nc2cccc(CCc3ccccn3)c2)cc1` across the screens: 95, -18, 86, 78
`Cc1cccc(NC(=O)CN2C(=O)c3cccnc3Sc3ccccc32)c1` across the screens: 111, -28, nt, nt

Part of the list above, set out differently.
compound | GIV Gai3 FP | HCMV NEC inh | Sa growth inh | Sa growth inh second temp
O=C1CCCN1c1ccc(S(=O)(=O)Nc2cccc(CCc3ccccn3)c2)cc1 | 95 | -18 | 86 | 78
COCOC(=O)c1c(-c2ccccc2Cl)noc1C | nt | -12 | 118 | 96
